GIV-Gai inh: inhibitors of GIV GBA-motif binding to rat Galpha-i3; AID 1224905; P08753; Galpha-i3/FITC-GIV peptide fluorescence polarization, 90 min; active compounds read low; scaled: aluminum fluoride 0%, vehicle 100%; 0.42% of 210,000 active; percent of control (FP), % (concentration not given with the values);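 active = replicate mean at 85% of control or lower, very high polarization wells dropped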;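 also: wells of about 15 µL received 100 nL stock; the first replicate is given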
Target sequence (P08753 whole entry, looked up): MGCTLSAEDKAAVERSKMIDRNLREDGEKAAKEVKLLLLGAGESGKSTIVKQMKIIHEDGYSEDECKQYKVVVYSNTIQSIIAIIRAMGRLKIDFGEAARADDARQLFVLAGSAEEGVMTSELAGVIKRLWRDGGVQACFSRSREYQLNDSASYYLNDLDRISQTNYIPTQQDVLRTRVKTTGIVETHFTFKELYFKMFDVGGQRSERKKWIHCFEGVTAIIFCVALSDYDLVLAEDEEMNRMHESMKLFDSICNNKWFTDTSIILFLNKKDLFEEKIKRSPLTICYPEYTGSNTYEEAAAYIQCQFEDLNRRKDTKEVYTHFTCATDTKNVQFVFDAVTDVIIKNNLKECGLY
Active calls of the source: *. Only part of the results is shown. The share of hits here may be higher or lower than overall.

SMILES | GIV-Gai inh
O=C1CSC(c2ccccc2)N1c1ccc(N2C(=O)CSC2c2ccccc2)cc1 (centres undefined) | 101
N=C1S/C(=C\c2ccc(-c3ccccc3F)o2)C(=O)N1c1nccs1 | 102
CCOC(=O)c1c(NC(=O)c2ccccc2)sc2c1CCN(Cc1ccccc1)C2 | 133
CC(=O)c1ccc(N2CCN(c3ncnc4c3cnn4-c3ccc(Cl)cc3)CC2)cc1 | 113
CCSCCOC(=O)C1=C(C)NC2=C(C(=O)CC(c3cccs3)C2)C1c1cc(OC)c(OC)c(OC)c1 (centres undefined) | 103
O=C(Nc1nc2ccccc2s1)c1cc2c(=O)oc3ccccc3c2s1 | 104
Cc1cc(SCC(=O)Nc2ccccc2Cl)nc2ccc(S(=O)(=O)N3CCCC3)cc12 | 101
COc1ccc(CCNC(=O)CCn2c(SCC(=O)Nc3ccccc3Cl)nc3ccccc3c2=O)cc1OC | 107
O=C(NCCN1CCN(S(=O)(=O)c2ccccc2)CC1)C(=O)Nc1ccccc1 | 104
O=C(CNC(=O)c1ccc(Br)cc1)N/N=C/c1ccc([N+](=O)[O-])s1 | 108
CCOc1ccc2c(c1)NC(C)(C)c1ssc(=Nc3ccccc3)c1-2 | 111
COc1cc(OC)c(NC(=O)N2CCN(c3nc4ccccc4n4cccc34)CC2)cc1Cl | 97
O=C1CN(C(=O)c2cc([N+](=O)[O-])c(Nc3cccc(C(F)(F)F)c3)c([N+](=O)[O-])c2)c2ccccc2N1 | 104
COc1ccc2c(c1)C(=NNC(N)=O)c1cc(OC)ccc1-2 | 101
Cc1sc2nc(-c3ccccc3Cl)n(CC(=O)Nc3ccc(N(C)C)cc3)c(=O)c2c1C | 116
CCCCCCC(=O)OC1CCC2(C)C(=CCC3C2CCC2(C)C(C(C)CCCC(C)C)CCC32)C1 (centres undefined) | 112
O=C1C2C(c3ccc(Cl)cc3)OC3(C(=O)c4ccccc4C3=O)C2C(=O)N1C1CCCCC1 (centres undefined) | 113
CCCc1oc2c(cc(NS(=O)(=O)c3ccc(Cl)c([N+](=O)[O-])c3)c3ccccc32)c1C(=O)OCC | 104
CC(C)(C)c1csc(-c2csc(S(=O)(=O)Nc3ccc(Cl)cc3)c2)n1 | 101
COc1ccc(C2C=C(C)Nc3nc(C(F)(F)F)nn32)cc1 (centres undefined) | 99

Reformatted with each value named: part of the list above.
SMILES: CC(=O)c1ccc(N2CCN(c3ncnc4c3cnn4-c3ccc(Cl)cc3)CC2)cc1
  GIV-Gai inh = 113
SMILES: O=C1CN(C(=O)c2cc([N+](=O)[O-])c(Nc3cccc(C(F)(F)F)c3)c([N+](=O)[O-])c2)c2ccccc2N1
  GIV-Gai inh = 104
SMILES: CCCc1oc2c(cc(NS(=O)(=O)c3ccc(Cl)c([N+](=O)[O-])c3)c3ccccc32)c1C(=O)OCC
  GIV-Gai inh = 104
SMILES: COc1ccc2c(c1)C(=NNC(N)=O)c1cc(OC)ccc1-2
  GIV-Gai inh = 101

(listing goes on)
SMILES | GIV-Gai inh
CCc1ccc(C2(O)CC(C(F)(F)F)=NN2C(=O)Cc2ccc([N+](=O)[O-])cc2)cc1 (centres undefined) | 105
COc1ccc(Oc2ccc(-c3noc(-c4ccnn4C)n3)cc2)cc1 | 101
N=C1S/C(=C\c2ccc(-c3cccc(F)c3)o2)C(=O)N1c1nonc1N | 109
O=C(CSc1nnc2c(=O)n(-c3ccc(F)cc3)ccn12)c1c[nH]c2ccccc12 | 108
CCCCN1CCN(Cc2nc3nc(C)cc(N4CCCCC4)n3n2)CC1 | 104
CNc1oc(-c2ccc(Cl)cc2)nc1P(=O)(c1ccccc1)c1ccccc1 | 109
CC(=O)C1=C(C)OC(N)=C(C#N)C1c1cccc(OCc2ccccc2)c1 (centres undefined) | 116
CCc1nnc(-c2coc(S(=O)(=O)N3CCCC(C)C3)c2)o1 (centres undefined) | 105
O=S(=O)(NCc1nc2cccnc2n1C1CCCC1)c1ccccc1 | 119
Cc1c(C(=O)Nc2ccc(Oc3ccccc3)cc2)sc2ncn(CC(=O)N3CCC(C)CC3)c(=O)c12 | 104
COc1ccc(N2CCN(S(=O)(=O)c3ccc(F)c(C(=O)Nc4ccc(C(C)C)cc4)c3)CC2)cc1 | 111
COc1ccc(C2=NN3C(C2)c2cccc(OC)c2OC3c2ccc(OC)c(OC)c2)cc1 (centres undefined) | 123
CCCN1CCN(c2ncnc3sc(C(=O)NCC4COc5ccccc5O4)c(C)c23)CC1 (centres undefined) | 107
CCOCCOC(=O)C(C)Oc1ccc2c(=O)c(Oc3cc(C)c(Cl)c(C)c3)coc2c1 (centres undefined) | 102
O=S(=O)(c1cccc(F)c1)N1CCCN(c2nc3cccnc3s2)CC1 | 101
CCCCCCCNS(=O)(=O)c1cc(S(=O)(=O)NCCCCCCC)c2cccc3c2c1NC3=O | 104
Cc1nn(-c2ccc3nncn3n2)c(C)c1CCC(=O)N1CCC(C)CC1 | 100
CCOC(=O)N1CCN(C(=O)c2ccc(N3CC4CC(C3)c3cccc(=O)n3C4)c(NC(=O)c3ccc(F)cc3)c2)CC1 (centres undefined) | 99
COc1ccc2c(c1)c(=O)c1ccccc1n2CC(=O)Nc1ccc(Cl)cc1 | 111
O=S(=O)(c1ccc(Br)cc1)N1CCN(c2ccc(N3CCCC3)nn2)CC1 | 101
CCOC1CCN(C(=O)C2CC2)CC1 | 103
OC(CNC1CCCCC1)Cn1c2ccccc2c2ccccc21 (centres undefined) | 107
Cc1ccc2c(c1)N(S(C)(=O)=O)CC(C)O2 (centres undefined) | 97
O=C(O)c1ccc(N2C(=O)C3C4c5ccccc5C(c5ccccc54)C3C2=O)cc1Cl (centres undefined) | 111
CCN(CC)CCOc1ccc2c(c1)C(=NNC(=O)NCCCCCCNC(=O)NN=C1c3cc(OCCN(CC)CC)ccc3-c3ccc(OCCN(CC)CC)cc31)c1cc(OCCN(CC)CC)ccc1-2 | 115
CCOc1ccc(S(=O)(=O)N2CCN(Cc3ccc4c(c3)OCO4)CC2)c2cccnc12 | 110
Cc1ccc(N2NC3(CCCCCC3)NC2=S)cc1 | 109
O=C(O)c1cccc(N2C(=O)CS(=O)(=O)C2c2ccccc2Br)c1 (centres undefined) | 110
N#CCN(c1ccc2c(c1)OCO2)S(=O)(=O)c1ccc2nncn2c1 | 93
Cc1ccc(NC(=O)c2sc3ncn(CC(=O)N4CC(C)CC(C)C4)c(=O)c3c2C)c(Br)c1 (centres undefined) | 114
O=C(c1ccoc1)N1CCC(Cc2nnc(-c3ccccc3)o2)CC1 | 96
Cc1cccc(Oc2c(C(F)(F)F)oc3c(CN4CC(C)OC(C)C4)c(O)ccc3c2=O)c1 (centres undefined) | 110
CCOC(=O)c1ccccc1NC(=O)Cn1nc2ccc(-c3ccc(Cl)cc3)nn2c1=O | 105
COc1cc(OC)c(OC)cc1/C=C1\N=C(c2cc(Br)ccc2OC)OC1=O | 120
COCc1cc(C)nc2sc3c(=O)n(-c4cccc5ccccc45)nnc3c12 | 110
CN1CCN(C(=O)c2nn3c(C(F)(F)F)cc(-c4ccco4)nc3c2Br)CC1 | 96
Cc1ccc(Cn2cc(C(=O)Nc3cc(F)ccc3F)ccc2=O)cc1 | 103
CCOP(=O)(OCC)c1nc(-c2ccccc2Cl)oc1N1CCCCC1 | 122
Cc1ccc(CNC2=NCCCNC23CCC(C)CC3)cc1 (centres undefined) | 103
Cc1nc(-c2ccc(C(=O)N3CCC(C(=O)N4CCOCC4)CC3)cc2)no1 | 99
Cc1ccc(-c2cc3nc(C)cc(N4CCC(C(=O)NCc5ccccc5Cl)CC4)n3n2)cc1 | 108
CCSc1nc2ccc(NS(=O)(=O)c3ccc4c(c3)CCC4)cc2s1 | 103
CCOC(=O)CSc1nc2cc(C(=O)N3CCN(C(=O)OCC)CC3)ccc2c(=O)n1C1CCCCC1 | 106
CC1CCN(c2cc(N3CCN(C(=O)c4ccc(F)cc4)CC3)c([N+](=O)[O-])cc2F)CC1 | 111
COc1ccc2c(c1OC)C(=O)OC2OC (centres undefined) | 120
CCSCCOC(=O)C1=C(C)NC2=C(C(=O)CC(c3cccs3)C2)C1c1ccc(O)c(OC)c1 (centres undefined) | 98
COc1ccc(Br)cc1/C=C1\N=C(c2cc(OC)c(OC)c(OC)c2)OC1=O | 108
CCN(CC)S(=O)(=O)c1ccc(C(=O)Nc2nc(-c3ccccn3)cs2)cc1 | 96
Cc1ccc(-c2noc(CSc3nc4cc5c(cc4c(=O)n3Cc3ccncc3)OCO5)n2)cc1 | 101
CCOC(=O)CNC(=O)NCc1ccc2c(c1)N(C(=O)c1ccc(C)cc1)CC2 | 113

Quoted at random: four records from the list.
SMILES | GIV-Gai inh
O=C(Nc1nc2ccccc2s1)c1cc2c(=O)oc3ccccc3c2s1 | 104
CCN(CC)S(=O)(=O)c1ccc(C(=O)Nc2nc(-c3ccccn3)cs2)cc1 | 96
Cc1cc(SCC(=O)Nc2ccccc2Cl)nc2ccc(S(=O)(=O)N3CCCC3)cc12 | 101
CC(C)(C)c1csc(-c2csc(S(=O)(=O)Nc3ccc(Cl)cc3)c2)n1 | 101

Next section
SMILES | GIV-Gai inh
CCCCCCCCCOc1ccc(-c2ncc(CCCCCCCCC)cn2)cc1 | 105
O=C(NC1CCCC1)c1nc(N2CCCCC2)c2oc3ccccc3c2n1 | 105
O=C(CCc1nc(N2CCCCC2)c2c(-c3ccc(F)cc3)noc2n1)NCc1ccc(Cl)cc1 | 100
Cc1nn(-c2ccc(F)cc2)c2sc(C(=O)NC3CCCCC3)cc12 | 104
Cc1nc(-c2cc(NC(=O)COc3ccc(Cl)cc3)c(C)s2)no1 | 97
Cc1ccc(-c2nnn(Cc3nc(N)nc(N4CCOCC4)n3)n2)cc1 | 100
COc1ccccc1NC(=O)c1sc2ncn(CC(=O)N3CCN(c4ccccn4)CC3)c(=O)c2c1C | 99
Cc1cccc(C)c1NC(=O)C(Cc1c[nH]c2ccccc12)NC(=O)OCc1ccccc1 (centres undefined) | 106
O=C(NCCc1ccccc1)Nc1ccc(CCc2nc3ccccc3[nH]2)cc1 | 104
CCn1nnc2c(NCCCOC(C)C)ncnc21 | 105
Cc1ccc(C(=O)N/C(=C\c2ccco2)C(=O)NCCCn2ccnc2)cc1C | 107
Cc1cc(NC(=O)C2CCCN(S(=O)(=O)c3cc(-c4noc(C5CCCC5)n4)cs3)C2)no1 (centres undefined) | 101
COC(=O)c1cc(Nc2ncnc3c2cnn3-c2ccc(C)cc2C)cc(C(=O)OC)c1 | 102
CC(=O)Nc1ccc2nc(N3CCC(C(=O)N4CCN(C)CC4)CC3)cc(C)c2c1 | 96
Nc1c(C(=O)Nc2ccccc2)oc2ccccc12 | 109
CCOC(=O)c1ccc(N2C(=O)C(C)S(=O)(=O)C2c2ccccc2)cc1 (centres undefined) | 119
Cc1nn(C)c(C)c1CCCN(C)c1ccc(NC(=O)c2ccc(Br)cc2)cc1C(=O)O | 110
CCOc1ccc(NC(=O)c2cc3nc(-c4ccc5c(c4)OCO5)cc(C(F)(F)F)n3n2)cc1 | 107
CCOc1cccc2cc(C(=O)Nc3cccc(C)c3)c(=Nc3ccc(C(=O)O)cc3)oc12 | 108
Cc1cc2c(cc1C)C(c1ccc(OC(F)(F)F)cc1)CC(=O)N2 (centres undefined) | 103
CCC(C)NC(=O)Cn1cc(-c2nc(-c3ccccc3C)no2)c(=O)c2ccc(C)nc21 (centres undefined) | 110
COc1ccccc1NC(=O)c1sc2ncn(CC(=O)Nc3cccc(C(F)(F)F)c3)c(=O)c2c1C | 110
Cc1csc2ncc(C(=O)N3CCN(c4ccc(Cl)cc4)CC3)c(=O)n12 | 104
CCOc1cccc(N2C(=O)/C(=C\c3cc(Br)c(O)c(OC)c3)C(=O)NC2=S)c1 | 131
O=c1[nH]c(SCc2ccccc2)nc2c1CN(Cc1ccccc1)CC2 | 97
N#CC1=C(N)OC2=C(C(=O)CC(c3ccccc3)C2)C1c1cn[nH]c1-c1ccc(F)cc1 (centres undefined) | 106
Cc1noc(-c2nn(C)c3c2CN(C(=O)c2cc4c(s2)CCCC4)CC3)n1 | 100
COc1cccc(-c2csc(Cc3nc(-c4ccc(Cl)cc4)no3)n2)c1 | 126
Cc1ccc(Cl)cc1NC(=O)CNS(=O)(=O)c1cc(-c2noc(C3CCC3)n2)cs1 | 106
CCC(C(=O)NCCc1c[nH]c2ccccc12)n1nc(C)c2nn(-c3ccccc3)c(C)c2c1=O (centres undefined) | 98
COCCOC(=O)c1cc2c(C)nn(-c3cccc(F)c3)c2s1 | 109
Cc1noc(C)c1S(=O)(=O)N1CCCC(c2nc(CNC(=O)C3CC3)cs2)C1 (centres undefined) | 100
COc1ccccc1Oc1cc(-c2cccc(C(=O)Nc3ccc(F)c(Cl)c3)c2)ncn1 | 106
O=C(Nc1ccc(Cl)cc1Cl)/C(=C/c1ccc2c(c1)OCO2)NC(=O)c1ccccc1Br | 112
CCCCCCCCCCOc1ccc(C(=O)Oc2ccc(OCCCCCC)cc2)cc1 | 108
CCOC(=O)c1ccc(NC(=O)/C(=C\c2ccc3c(c2)OCO3)NC(=O)c2ccccc2)cc1 | 117
CCNC(=O)C1CCCN(c2nc3ncn(CC(=O)N4CCc5ccccc5C4)c(=O)c3s2)C1 (centres undefined) | 98
COc1ccc(C(=O)N2c3ccccc3N(Cc3ccccc3)C(=O)C2(C)C)cc1 | 111
Cc1ncsc1CN1CCC(C(O)c2ccccc2)CC1 (centres undefined) | 111
COc1ccc(C2C(C#N)=C(N)Oc3n[nH]c(C45CC6CC(CC(C6)C4)C5)c32)cc1OC (centres undefined) | 105
CCCc1cc(C2CCCN2C(=O)NCC2CCC(C(=O)OCC)CC2)no1 (centres undefined) | 108
COc1cc(NC(=O)CSc2nc3[nH]ncc3c(=O)n2-c2ccc(F)c(Cl)c2)cc(OC)c1OC | 107

Compound activity deposited in PubChem by ICCB-Longwood Screening Facility, Harvard Medical School.
